Six1-Eya2 blk: qHTS Assay for Inhibitors of the Six1/Eya2 Interaction | Homeobox protein SIX1 (Homo sapiens) + Protein phosphatase EYA2 (Homo sapiens), … | AlphaScreen GST-Six1/His-Eya2 binding, biochemical; stronger effect = lower value; control for the full effect not named in the record | activity change, % (no concentration beside the values) | actives 0.56% (n = 360,000); in the data active = activity change below about -65%; inconclusive = about -30% to -65%; inactive = above about -30%; further: on the % scale 0 is the no-effect control and ±100 the full control effect; compound concentration not given in the record
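Homogeneous AlphaScreen proximity assay pairing GST-Six1 with His-tagged Eya2 (added as 5X mix: 250 nM and 500 nM) in 50 mM Tris pH 8.0, 300 mM NaCl, 1 mM TCEP. Glutathione donor and nickel acceptor beads; 1 h, 37 °C, dark.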
TRPML1 agonist: qHTS for Agonists of the Human Mucolipin Transient Receptor Potential 1 (TRPML1). Mucolipin-1 (Homo sapiens), Q9GZU1. AID 624414, 2012. activation, % (no concentration beside the values). TRPML1-expressing cells, Ca2+ dye fluorescence, FDSS; host cell line not named in the record; reference of the full effect not given here. actives 0.12% (n = 410,000); in the data active = activation above about 50%; inconclusive = about 30% to 50%; inactive = below about 30%; further: 0% is about no effect; the text of the record puts the active cut at 80%
Target sequence (Q9GZU1 whole entry, looked up): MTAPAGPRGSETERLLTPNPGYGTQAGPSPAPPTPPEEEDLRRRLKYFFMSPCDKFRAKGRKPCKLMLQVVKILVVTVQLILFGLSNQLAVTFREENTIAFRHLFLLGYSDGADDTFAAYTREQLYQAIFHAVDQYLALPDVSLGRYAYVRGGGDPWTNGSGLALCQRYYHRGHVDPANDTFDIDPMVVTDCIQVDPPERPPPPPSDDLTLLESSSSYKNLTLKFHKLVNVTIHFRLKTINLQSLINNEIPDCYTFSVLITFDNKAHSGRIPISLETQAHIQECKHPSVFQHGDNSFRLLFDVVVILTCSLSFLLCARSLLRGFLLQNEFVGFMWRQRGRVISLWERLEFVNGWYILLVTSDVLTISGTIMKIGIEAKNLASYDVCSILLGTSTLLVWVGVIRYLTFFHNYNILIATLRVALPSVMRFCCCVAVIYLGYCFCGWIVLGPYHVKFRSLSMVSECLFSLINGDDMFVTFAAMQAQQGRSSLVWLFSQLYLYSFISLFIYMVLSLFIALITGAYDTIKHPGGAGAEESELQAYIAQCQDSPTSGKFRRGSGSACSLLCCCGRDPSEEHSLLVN
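Cells: TRPML1-DL, 1X Tet inducer, ~16 h at 37 degrees C/5% CO2. Dye: ABD Ca8 no-wash + quencher, 45-90 min RT. Read: 10 s baseline, compound add, 110 s agonist phase; 54-4 EC80 (4uM final), 110 s antagonist phase.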
CtBP-E1A inh: qHTS Assay for Inhibitors of the CtBP/E1A Interaction; AlphaScreen GST-E1A/His-CtBP binding, 1536-well; stronger effect = lower value; control for the full effect not named in the record; activity change, % (test concentration not listed); actives 0.49% (n = 340,000); in the data active means activity change below about -65%; inconclusive means about -30% to -65%; inactive means above about -30%; further: on the % scale 0 is the no-effect control and ±100 the full control effect; compound concentration not given in the record
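GST-E1A and His-tagged CtBP (125 nM each as 5X stock) were preincubated with pin-transferred compound for 2 h at 37 °C in the dark, then glutathione donor and nickel acceptor beads were added for 1 h before AlphaScreen reading.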
D2 PAM: Beta-Arrestin HTS for Positive Allosteric Modulators of the Human D2 Dopamine Receptor: Potentiators; D(2) dopamine receptor (Homo sapiens), P14416; DiscoveRx D2 beta-arrestin cells, luminescence, 90 min; 100% = 57 uM dopamine signal; potentiation, % (test concentration not listed); actives 0.23% (n = 360,000); AID 624464, 2012; active = potentiation of 50% or more; inconclusive = 30% to 50%; inactive = 30% or less;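 further: compound concentration not given in the record; tested on top of an EC20 dose of dopamine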
Target sequence (P14416 whole entry, looked up): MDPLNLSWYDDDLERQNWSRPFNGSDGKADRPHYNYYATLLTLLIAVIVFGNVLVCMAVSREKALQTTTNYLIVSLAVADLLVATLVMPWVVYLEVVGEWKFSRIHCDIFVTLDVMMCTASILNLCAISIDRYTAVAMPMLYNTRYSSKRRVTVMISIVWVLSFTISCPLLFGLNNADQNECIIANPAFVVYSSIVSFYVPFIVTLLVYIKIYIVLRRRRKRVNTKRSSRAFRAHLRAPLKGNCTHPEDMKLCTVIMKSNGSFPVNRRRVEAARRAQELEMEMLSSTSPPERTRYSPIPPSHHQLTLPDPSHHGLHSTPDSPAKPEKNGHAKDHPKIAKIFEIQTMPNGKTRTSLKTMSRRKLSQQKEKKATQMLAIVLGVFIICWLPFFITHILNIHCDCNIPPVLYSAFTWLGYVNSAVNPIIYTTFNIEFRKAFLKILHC
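PathHunter D2 cells, attached overnight at 37 deg C, received compound in DMSO plus dopamine at EC20 (50 nM final) for 90 min at 37 deg C. Beta-arrestin recruitment was read as luminescence after 1 h with detection reagent at ambient temperature.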
D2 agonist: Beta-Arrestin HTS for Positive Allosteric Modulators of the Human D2 Dopamine Receptor: Agonists; D(2) dopamine receptor (Homo sapiens), P14416; DiscoveRx PathHunter D2 beta-arrestin, luminescence, 90 min; 100% = 57 uM dopamine signal; activation, % (no concentration beside the values); actives 0.084% (n = 360,000); in the data active = activation above about 40%; inconclusive = about 15% to 40%; inactive = below about 15%; further: compound concentration not given in the record; the text of the record calls up to 30% inactive
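DiscoveRx PathHunter D2 beta-arrestin cells (2,100/well) attached overnight, then compound-stimulated 90 min at 37 C in HBSS/10 mM HEPES/0.1% Tween-20 buffer; beta-galactosidase complementation read by luminescence after 1 h at ambient temperature. Dopamine 57 uM final (EC100) as control.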
PINK1 expr mod: A Quantitative High throughput Screen to Identify Chemical Modulators of PINK1 Expression. PINK1 immunofluorescence, high-content cytometry, 24 h. Potency, µM (doses to about 76.6 µM), inactives show at the top dose activation (PINK1 increase), hits mostly activators. actives 0.2% (n = 410,000). AID 624263, 2012; active = well fitted activation curve with a large enough effect; inconclusive = small, poorly fitted or top-dose-only effect; inactive = flat fitted curve, though single readings scatter; cell line not stated here;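 further: potency means the concentration at half of the fitted maximal effect; % of control where 0% means no effect; nearly all actives have a fitted effect of over 65% in size; a mitochondrial uncoupler was the plate control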
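Stable cell line treated 24 h with compounds at 5 concentrations (CCCP controls), then fixed and immunostained for PINK1 plus nuclear and cell stains; PINK1 immunofluorescence quantified by laser-scanning microplate cytometry.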
* = called active by the depositor; ? = inconclusive; . = not tested or not shown; [ ] = remark or other dose.

Values run as follows: Six1-Eya2 blk	TRPML1 agonist	CtBP-E1A inh	D2 PAM	D2 agonist	PINK1 expr mod
- Cc1nc2ncnn2c(C)c1CCC(=O)NCc1ccco1
→ -1	-1.1	5	0	-4.0	-2.5%
- OC(COc1ccc(CN2CCCCO2)cc1)CN1CCCCC1 (stereo not drawn)
→ 21	0.0	0	-10	-0.2	1.2%
- Cc1csc(NC(=O)CSc2nncs2)n1
→ 6	0.5	1	-19	-2.8	0.4%
- N#CCCN(C(=O)COC(=O)CCc1nc2ccccc2c(=O)[nH]1)c1ccc(F)cc1
→ 1	0.1	-7	0	-3.0	-3.8%
- O=C(Cn1cnc2ccccc21)N/N=C/c1cccs1
→ 2	-1.0	2	-1	-2.4	2.5%
- COc1cccc2cc3c(=O)oc4ccccc4c3nc12
→ 3	0.9	-10	-4	-2.4	-1.9%
- COc1ccc(-c2noc3c2-c2nc(-c4ccccc4Cl)sc2CC3)cc1
→ 0	-0.6	6	-7	-1.3	1.8%
- O=C1c2ccccc2NC(c2ccc(O)cc2)N1/N=C/c1ccc(O)cc1 (stereo not drawn)
→ 2	1.1	-1	-5	-0.7	2.8%
- COC(=O)Cc1csc(NC(=O)CSc2nncn2C)n1
→ 8	-0.2	2	-6	-1.4	1.9%
- Cc1cccc(N(CC(=O)Nc2c(C)n(C)n(-c3ccccc3)c2=O)S(C)(=O)=O)c1
→ 5	0.9	8	-5	-2.3	-1.4%
- CCN(CCO)c1nc(N2CCCCC2)c2cnn(C)c2n1
→ 6	1.2	.	-11	-27	0.1%
- CC(C)(C)NC(=O)c1ccc(COc2ccc(Cl)cc2Cl)o1
→ 8	3.5	4	-4	4.6	3.5%
- Cc1cccc(NS(=O)(=O)Cc2ccccc2)c1C
→ -11	0.0	12	-11	-2.4	4.4%
- CNc1nc(NCc2ccccc2)nc(N)c1[N+](=O)[O-]
→ 1	0.7	.	-5	3.6	3.9%
- NC(=O)CSc1nnc(Cc2csc(Nc3ccccc3)n2)n1Cc1ccccc1
→ -6	0.0	9	-6	-2.0	.
- CCN(C(=O)COC(=O)c1ccc(SC)cc1OC)C1CCS(=O)(=O)C1 (stereo not drawn)
→ 1	-0.5	1	3	2.3	1.7%
- O=C1NC(=NCc2ccccc2)S/C1=C/c1ccc(O)cc1
→ -15	-0.2	-1	-15	1.9	-3.0%
- CCN1CCN(CCCNC(=O)CCC(=O)N2CCOc3ccccc32)CC1
→ -2	0.2	1	-8	-3.5	1.5%
- CCOC(=O)CCc1n[nH]c(=O)[nH]c1=O
→ 24	0.0	0	-1	-3.6	-1.3%
- CCCN1CCN(c2nc(-c3cccs3)nc3ccccc23)CC1
→ -6	0.9	-8	-43	-2.2	9.9%
- O=C(c1ccc(F)cc1)C(CCCCCC(CN1CCOCC1)C(=O)c1ccc(F)cc1)CN1CCOCC1 (stereo not drawn)
→ -4	0.4	-15	-35	0.9	-1.5%
- COc1ccc(Br)cc1CNC(C)c1ccccc1 (stereo not drawn)
→ 4	-0.4	1	-17	-0.6	7.9%
- O=C(c1cccc(N2C(=O)c3ccccc3C2=O)c1)N1CCCCCC1
→ 5	0.3	10	-10	-2.6	0.7%
- COc1ccc(-c2nnn(CC(=O)N(Cc3cccs3)C(C)C(=O)NC3CCCC3)n2)cc1OC (stereo not drawn)
→ -1	-0.2	1	-3	-1.1	3.7%[38.3 µM]
- O=C(CSC1=NCCN1)Nc1cccc([N+](=O)[O-])c1
→ -12	0.3	-14	-22	-3.9	2.5%
- CCn1cc(C(=O)O)c(=O)c2cc(S(=O)(=O)N3CCCCCC3)ccc21
→ 7	-0.2	-22	-8	7.8	-0.1%
- O=C(NCCN1CCOCC1)c1ccc(Cl)c(Cl)c1
→ 9	0.5	6	-12	-0.2	3.2%
- CN(C)c1nc(N2CCOCC2)nc(N(c2ccccc2)c2ccccc2)n1
→ -1	0.8	1	-1	-3.2	0.4%
- Cc1ccccc1NC(=O)N1CCN(c2ncccn2)CC1
→ -4	0.6	-1	2	-1.9	2.2%
- CC(=O)NC(CCS(C)(=O)=O)C(=O)Nc1cccc(C(C)=O)c1 (stereo not drawn)
→ 3	0.5	-14	-12	1.7	?
- O=C1/C(=C/c2ccc(C(=O)O)cc2)CCC/C1=C\c1ccc(C(=O)O)cc1
→ -67*	-0.8	3	-8	-5.7	3.5%
- C/C(=N\NC(=S)NC(C)C)c1ccc(-n2ccnc2)cc1
→ -11	0.5	-9	-4	3.8	1.7%
- COc1ccc(NS(=O)(=O)c2ccc(SC)cc2)cc1
→ -13	-0.1	-1	11	-0.8	?
- CCn1c(Cc2ccccc2)nnc1SCC(=O)Nc1ccc(OC)cc1
→ 3	0.0	-5	1	-5.0	1.0%
- O=C(Oc1ccccc1)c1cc2ccccc2oc1=O
→ 4	2.5	-16	-5	-1.3	1.7%
- CN(C(=O)COC(=O)c1cccc(S(=O)(=O)N2CCOCC2)c1)C1CCS(=O)(=O)C1 (stereo not drawn)
→ 13	-0.2	10	-8	-5.3	3.4%
- NS(=O)(=O)c1ccc(CCNC(=O)c2cc([N+](=O)[O-])ccc2N2CCCCC2)cc1
→ -1	1.7	0	-6	-2.6	1.8%
- CC(C)C(=O)N1CCN(c2ccccc2NC(=O)c2ccc3c(c2)OCCO3)CC1
→ 19	0.9	-11	-1	-3.0	-0.9%
- CC(C)(C)c1ccc(SCC(N)=O)cc1
→ 8	0.4	5	-20	0.3	1.3%
- O=C(COc1ccc(Cl)cc1)NNC(=O)c1ccccc1C(=O)O
→ 5	0.7	3	-4	-5.4	0.6%
- Cc1cc(=O)oc2cc(OCC(=O)OC(C)C(=O)Nc3ccc(S(N)(=O)=O)cc3)ccc12 (stereo not drawn)
→ 1	0.0	-15	-15	-1.6	-5.2%
- Clc1ccc(-c2c[n+](Cc3cccc(Cl)c3)c3n2CCC3)cc1
→ 10	1.1	9	-42	-5.5	-2.2%
- CCC(=O)c1ccc(OCC(=O)OCC(=O)N2c3ccccc3NC(=O)C2(C)C)cc1
→ -3	1.9	9	-24	-3.7	-4.0%
- CCCCCCCC(=O)NNC(=O)c1ccc(F)cc1
→ 5	0.8	5	6	-2.0	-0.3%[38.3 µM]
- COc1ccccc1-n1cnnc1SCc1csc(-c2ccccc2)n1
→ -7	1.2	-5	-11	-1.2	-2.1%

Reprinted at random: 3 compounds from above.
Values run as follows: Six1-Eya2 blk	TRPML1 agonist	CtBP-E1A inh	D2 PAM	D2 agonist	PINK1 expr mod
- COc1ccc(NS(=O)(=O)c2ccc(SC)cc2)cc1
→ -13	-0.1	-1	11	-0.8	?
- Clc1ccc(-c2c[n+](Cc3cccc(Cl)c3)c3n2CCC3)cc1
→ 10	1.1	9	-42	-5.5	-2.2%
- CCn1c(Cc2ccccc2)nnc1SCC(=O)Nc1ccc(OC)cc1
→ 3	0.0	-5	1	-5.0	1.0%

More records follow:
Values run as follows: Six1-Eya2 blk	TRPML1 agonist	CtBP-E1A inh	D2 PAM	D2 agonist	PINK1 expr mod
- NC(c1csc(Nc2ncccn2)n1)C1CCCCC1 (stereo not drawn)
→ ?	0.4	-67*	-7	-3.9	1.2%
- Cn1c(SCC(=O)N2CCN(c3ccccc3)CC2)nnc1-c1ccncc1
→ 2	-0.2	-1	-1	-0.4	-3.1%
- COc1ccccc1N1CCN(C(=O)C(=O)c2c(C)[nH]c3ccccc23)CC1
→ -9	0.2	.	-13	0.0	1.0%
- O=C(/C(N=Nc1cccc(C(F)(F)F)c1)=C(/O)c1cccs1)C(F)(F)F
→ ?	-0.1	-14	-11	-6.4	?
- COc1ccc(NC(=O)C(C)SCc2ccccc2)cc1OC (stereo not drawn)
→ -2	1.6	7	11	-0.5	3.4%
- Cc1cc(C)cc(NC(=O)Nc2ccc(NC(=O)c3ccccc3O)cc2)c1
→ -3	0.0	5	-8	2.8	9.5%
- COc1ccc(C(=O)NCC(=O)NCc2ccc3c(c2)OCO3)cc1[N+](=O)[O-]
→ -10	-0.8	0	-4	0.1	0.2%
- CC(=O)C1=C(O)C(=O)N(c2ccccn2)C1c1ccccc1[N+](=O)[O-] (stereo not drawn)
→ 1	-0.3	6	-6	-2.8	5.2%
- Cc1ccc(N2CC(c3nc4ccccc4n3C)CC2=O)cc1 (stereo not drawn)
→ 2	0.9	.	-6	-4.7	0.2%
- Nc1cc(=O)[nH]c(SCC(=O)Nc2ncc(C(F)(F)F)cc2Cl)n1
→ 0	1.1	11	-9	-3.1	-0.6%
- CCn1c(SCc2c(Cl)cccc2Cl)nnc1-c1nn(-c2ccccc2)ccc1=O
→ -19	0.0	-6	-5	-2.2	-0.7%
- CC1(C)C(=O)Nc2ccccc2N1C(=O)COC(=O)c1cccnc1Cl
→ 0	-0.4	4	-1	2.7	0.2%
- CC(=O)Nc1scc(C)c1-c1nc2ccccc2s1
→ 14	2.9	15	-3	-2.7	3.7%
- CC(C)[C@H](NS(=O)(=O)c1ccccc1)C(=O)OCc1cc([N+](=O)[O-])cc2c1OCOC2
→ -10	0.5	8	-25	2.0	-0.7%
- CCOC(=O)C1=C(N)n2c(s/c(=C\c3ccco3)c2=O)=C(C(=O)OCC)C1c1ccco1 (stereo not drawn)
→ -13	1.8	-13	3	-2.0	?
- Cc1cc(C)cc(NC(=O)CCN2C(=O)c3ccccc3C2=O)c1
→ -4	-0.1	-11	-7	-0.9	11%
- O=C(NNC(=O)C1CCN(c2ncccn2)CC1)c1ccc(F)cc1
→ 2	0.1	2	-1	3.8	-0.2%
- O=C(Nc1ccc(N2CCCCC2)cc1)c1cc(S(=O)(=O)N2CCOCC2)ccc1F
→ -22	0.5	-4	0	5.0	-1.9%

Source: PubChem (National Center for Advancing Translational Sciences (NCATS))
